# High-throughput results deposited in PubChem BioAssay by Southern Research Institute.
# Mtb growth = Mycobacterium tuberculosis H37Rv growth inhibition, cell based, confirmatory dose response (AID 1949); inhibition, % at 10 µg/mL; hits with a dose series show IC50 in µg/mL; most inactive calls were filed without a number and no value below 0 was filed; hit rate 1.6% among 100,000; M. tuberculosis H37Rv growth inhibition;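 active means confirmed in a dose series; inconclusive means about 50% or more but not retested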;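 further: bacteria grown 7 days with compound before Alamar blue readout; 0% = untreated bacteria and 100% = reference antibiotic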
# An asterisk follows results filed as active; i = inactive; u = inconclusive. These rows are one share of the data (hit frequency here may not be typical).
SMILES	Mtb growth
CCOc1ccc2c(C)nc(/N=C(/N)NC(=O)c3ccccc3)nc2c1	i
O=C(c1cc2cc(Cl)ccc2oc1=O)N1CCCC1	i
S=C(Nc1ccn(C23CC4CC(CC(C4)C2)C3)n1)NC1CCCC1	1%
CCOC(=O)C1=C(C)NC2=C(C(=O)CCC2)C1c1cccc(O)c1 (stereo not drawn)	i
O=C(CSc1nnnn1-c1ccccc1)N1CCN(c2ccc(Cl)cc2)CC1	2%
Cc1cc(Br)ccc1OCC(=O)Nc1cccc2c1CCCC2	i
Cc1cc(OCC(=O)Nc2sc3c(c2C(N)=O)CCC(C)C3)ccc1C(C)C (stereo not drawn)	i
Cc1ccc(C(=O)Nc2ccc(CN3CCOCC3)cc2)cc1C	1%
CCn1c2ccccc2c2cc(C3C(C#N)=C(N)Oc4n[nH]c(COC)c43)ccc21 (stereo not drawn)	0%
Cc1cc(N2C(=O)C(O)=C(C(=O)c3ccco3)C2c2cccc(Br)c2)no1 (stereo not drawn)	i
N#Cc1ccc(NS(=O)(=O)Cc2ccccc2)cc1	i
COc1ccc([N+](=O)[O-])cc1NC(=S)NC(=O)CCc1ccccc1	4%
COc1ccccc1OC(C)C(=O)Nc1cccc(C(=O)O)c1 (stereo not drawn)	1%
COc1cc(NC(=S)NC(=O)c2cccs2)ccc1NC(=O)C(C)C	i
COc1ccc(C)cc1N(CC(=O)Nc1ccc(F)cc1F)S(C)(=O)=O	i
O=C(O)CCN1C(=O)c2ccccc2S1(=O)=O	5%
CCN1CCCC1CNC(=O)c1cccc(Cl)c1 (stereo not drawn)	1%
O=C(C1CCN(C(=S)Nc2ccc(F)cc2)CC1)N1CCCC1	i
CCCn1nnnc1NC(=O)c1cccs1	1.7µg/mL*
CCNC(=O)c1ccc(C23CC4CC(CC(C4)C2)C3)o1	i
CCN1C(=O)C(CC(=O)Nc2ccc(Cl)cc2)N(CCc2ccc(F)cc2)C1=S (stereo not drawn)	i
Cc1ccc(-n2nc(C)c(S(=O)(=O)c3ccccc3)c2OC(=O)CC(C)C)c(C)c1	3%
CN1CCN(C(=O)C2CCCN(S(=O)(=O)c3ccc(Cl)cc3)C2)CC1 (stereo not drawn)	1%
COc1ccc(S(=O)(=O)N(CC(=O)Nc2cccc(C)c2)c2cccc(Cl)c2)cc1	i
CCc1c(C)sc(NC(=O)C2CC2c2ccccc2)c1C(N)=O (stereo not drawn)	i
CC(NC(=O)c1ccc2ccccc2c1)c1ccccc1 (stereo not drawn)	i
O=[N+]([O-])c1ccc(N2CCN(S(=O)(=O)c3ccc(Cl)c(Cl)c3)CC2)cc1N1CCCCC1	i
Cc1ccnc(NC(c2ccccn2)c2ccc3ccc(C)nc3c2O)c1 (stereo not drawn)	2%
Cc1ccc(NC(=O)c2cccc(NC(=O)CCC(=O)O)c2)cc1C	i
Cc1ccc2c(c1)C(=O)C(=O)N2Cc1ccccc1	9%
CCN(CC)C(=O)c1sc(NC(=S)Nc2ccc(C(=O)N3CCCCC3)cc2)c(C(=O)OC)c1C	i
O=C(CN1C(=O)c2cccc3cccc(c23)C1=O)N1CCN(c2ccccc2F)CC1	i
COc1cc(S(=O)(=O)Nc2ccccc2O)c(OC)cc1Cl	i
O=C(Nc1cccc(C(F)(F)F)c1)C1CCN(C(=O)c2ccc(-c3ccccc3)cc2)CC1	5.8µg/mL*
COc1ccc(OC(C)C(=O)Nc2cc(C)c(Cl)cc2OC)cc1 (stereo not drawn)	i
CC(C)c1cc(Br)ccc1OCCCN1CCN(C)CC1	2%
CCc1ccc(NC(=O)COc2ccc(N3CC(C(N)=O)CC3=O)cc2)cc1 (stereo not drawn)	i
Cc1cc(C)n2[nH]c(=O)c(Br)c2n1	i
COc1ccc(C(=O)NC(=S)Nc2ccc(S(=O)(=O)NC(C)=O)cc2)cc1I	i
COc1cccc(NC(=O)CSc2nnc(Cc3ccccc3)n2C)c1	i
COc1ccc(NC(=O)CN(c2cc(Cl)ccc2C)S(=O)(=O)c2ccc(C)cc2)c(OC)c1	2%
COc1cc(C2NC(=S)NC(c3ccccc3)=C2C(=O)c2ccccc2)cc(I)c1OCC#N (stereo not drawn)	i
COc1ccc(NC(=O)NCc2ccccc2F)cc1OC	i
CC(C)C(=O)Nc1nnc(Cc2cccc(Br)c2)s1	3%
Cc1cc(C(=O)NCCc2ccc(Cl)cc2)no1	8%
CCOC(=O)c1cc(-c2ccccc2)sc1NC(=S)N1CC(C)OC(C)C1 (stereo not drawn)	i
Cc1ccc(S(=O)(=O)NCC(Nc2ccc(Br)cc2)c2ccccc2)cc1 (stereo not drawn)	4%
Cc1sc(NC(=O)Cc2cccs2)c(C(N)=O)c1C	i
CC(=O)c1ccc(Nc2nc(-c3sc(C)nc3C)cs2)cc1	i
CCC(CC)C(=O)Nc1ccc(S(=O)(=O)NC(C)(C)C)cc1	i
COc1ccccc1C1=NN(C(=O)CCCC(=O)O)C(c2ccco2)C1 (stereo not drawn)	i
N#CC1=C(N)N(c2ccc(Br)cc2)C2=C(C(=O)CCC2)C1c1ccc2c(c1)OCO2 (stereo not drawn)	i
COc1ccc(N(C(C)C(=O)NC2CCCC2)S(C)(=O)=O)cc1 (stereo not drawn)	i
COC(=O)c1c(NC(=O)C(C)(C)C)sc2c1CCC2	i
CCN1C(=O)C2C(C1=O)N1C(c3cccs3)C3C(=O)N(CC)C(=O)C3N1C2c1cccs1 (stereo not drawn)	i
COCc1cc(C)nc2sc(C(=O)Nc3ccc(C)c(Cl)c3)c(N)c12	4%
O=C(Nc1cnccn1)c1sc2ccccc2c1Cl	0%
CC(=O)c1c(C)n(C)c2ccc(O)cc12	i
C=CCNS(=O)(=O)c1ccc(SC)cc1	5%
COc1ccc(C2CC(C(F)(F)F)n3ncc(C(=O)Nc4ccccc4SC)c3N2)cc1OC (stereo not drawn)	i

# More structures:
SMILES	Mtb growth
O=C(Nc1ccc(-c2nc3ccccc3s2)cc1)c1cccc(F)c1	i
Cc1ccc(-c2oc3ncnc(N)c3c2-c2ccc(C)cc2)cc1	i
CCN1CCN(CCCOc2ccc3c(c2)CCC3)CC1	i
CC(=O)c1cccc(NC(=O)Nc2cc(C(F)(F)F)cc(C(F)(F)F)c2)c1	12%
CC(=O)NCCc1nc2cc([N+](=O)[O-])ccc2n1C	2%
O=C(O)c1cc(NC(=S)NC(=O)c2ccccc2Br)ccc1Cl	i
CCOC(=O)C1=C(C)Nc2ncnn2C1c1cccc(Cl)c1Cl (stereo not drawn)	i
CC(C)CNC(=O)c1ccccc1Oc1ccccc1	i
Cc1ccc(/C(N)=N/OC(=O)Oc2ccccc2)cc1	i
COc1ccc(-c2cc(C(=O)N3CCN(c4ccc([N+](=O)[O-])cc4)CC3)c3ccccc3n2)cc1	i
COC(=O)Cc1ccc(NC(=S)N2CCCC(CO)C2)cc1 (stereo not drawn)	i
CC(=O)Nc1ccc(N2C(=O)CC(NCc3ccc(Cl)c(Cl)c3)C2=O)cc1 (stereo not drawn)	i
Cc1cc(C)c(S(=O)(=O)Nc2ccc3c(c2)OCCO3)c(C)c1	1%
O=S(=O)(Nc1cccc2ccccc12)c1ccc(NS(=O)(=O)c2cccs2)cc1	i
NC(=O)c1c(NC(=O)c2cccnc2)sc2c1CCCCC2	i
Nc1nc(Cc2c[nH]c3ccccc23)nc(NC2CCCCC2)n1	i
COc1ccc(-c2nc(N)n(C(=O)c3ccc(Cl)cc3)n2)cc1	i
Cc1cccc(C(=O)Nc2ccc(C(=O)NNC(=O)C(C)(C)C)cc2)c1	i
CC1=C(C(=O)Nc2ccccc2F)C(c2ccco2)C(C#N)=C(SCC(=O)c2ccc(C)cc2)N1 (stereo not drawn)	38%
c1ccc(CCc2nc(-c3cccnc3)no2)cc1	9%
Cc1cc(OCCCCN2CCCC2)ccc1C(C)C	i
COc1ccc2nc(N3C(=O)C4C5c6ccccc6C(c6ccccc65)C4C3=O)sc2c1 (stereo not drawn)	i
Nc1nn(S(=O)(=O)Cc2ccc(Br)cc2)cc1-c1ccccc1	i
CC(=O)Oc1ccc(N(C(C)=O)S(=O)(=O)c2cc(C)c(C)cc2C)c2ccccc12	1%
O=C(NC(=S)Nc1ccccc1N1CCOCC1)c1ccco1	i
O=S(=O)(Nc1cccc2cccnc12)c1ccc(Br)cc1	0.4µg/mL*
COc1ccc(NC(=O)CCN2CCC(C(N)=O)CC2)cc1	1%
COC(=O)c1sc(NC(=S)Nc2cccc(Cn3cc(Cl)cn3)c2)c(C(=O)OC)c1C	i
OCCCc1nc2ccccc2n1CC1CC1(Cl)Cl (stereo not drawn)	i
O=C(O)CC(NCc1ccco1)C(=O)Nc1cccc(F)c1 (stereo not drawn)	i
COC(=O)c1ccccc1NC(=O)c1ccc(-c2ccccc2Cl)o1	i
O=C(NCCCCc1ccccc1)c1cccc(Cl)c1	3%
O=C(O)c1ccc(Cl)c(NC(=O)c2cccs2)c1	i
COc1cc(C(=O)N2c3ccccc3CCC2C)cc(OC)c1OC (stereo not drawn)	i
Cc1cc(S(=O)(=O)Nc2ccccc2C(=O)O)ccc1Cl	i
Cc1cc(C)c(OCCNC2CCCC2)c(Br)c1	i
C=CCn1c(SCC(=O)Nc2ccccc2OC)nnc1-c1cc(Br)ccc1O	i
O=C(CSc1nc2ncccc2[nH]1)Nc1cc(Cl)ccc1Cl	i
O=Cc1ccc(-c2ccc(Cl)c(C(F)(F)F)c2)o1	u
COCCSc1ccccc1C(=O)N1CCc2ccccc21	4%
O=C(CCNc1ccc(Cc2ccncc2)cc1)c1ccc(Cl)cc1	34%
CCOC(=O)c1sc(NC(=O)CSc2ncccn2)c(C#N)c1C	i
CCc1cc(C(=O)OC)c(NC(=O)CC2NCCNC2=O)s1 (stereo not drawn)	i
Cc1sc(NC(=O)Cc2ccc(Br)cc2)c(C(N)=O)c1-c1ccc(Cl)cc1Cl	i
CC(=O)c1c(C)oc2ccc(N(C(=O)C3CCCCC3)S(=O)(=O)c3ccc(F)cc3)cc12	i
CCOC(=O)c1cnc2ccccc2c1Nc1ccc(C(=O)O)cc1	i
Cc1c(OC(=O)c2cccc([N+](=O)[O-])c2)ccc2c1CCCC2	2.6µg/mL*
Cc1c(Cl)cccc1N/C(=N/S(=O)(=O)c1cccs1)c1ccccc1	4%
COc1ccccc1-c1cc(C(=O)NCCN2CCOCC2)c2ccccc2n1	i
CCC(C)c1cc(S(=O)(=O)N2CCCCC2)ccc1OC (stereo not drawn)	i
Cc1ccnc(NC(=O)CCC2CCCCC2)c1	i
COc1ccc(-c2nc(SC)n(C(=O)c3ccco3)n2)cc1	i
CCc1c(C)sc(NC(=O)c2ccc(C(C)C)cc2)c1C(N)=O	14%
CCC1(C)Cc2ccccc2-c2nc3n(c(=O)c21)CCS3 (stereo not drawn)	i
COCCN(Cc1cc2ccc(C)cc2[nH]c1=O)S(=O)(=O)c1ccccc1	i
CCOC(=O)C1=C(C)NC(=S)NC1c1cccc(OC)c1OCC (stereo not drawn)	i
O=C(CSc1ccccn1)NCc1ccccc1	i
CCOc1ccc(-n2c(SCCOc3ccccc3)nnc2-c2ccncc2)cc1	i
CCN1CCN(c2ccc(NC(=O)c3ccco3)cc2Cl)CC1	i
CCCCc1nnc(NC(=O)c2cc3ccccc3o2)s1	i

# Later entries:
SMILES	Mtb growth
Cc1cc(OCCn2cnc3ccccc3c2=O)ccc1C(C)C	7%
CSc1ccccc1NS(=O)(=O)c1cccs1	i
Cc1c(OCc2nnc(SCC(=O)Nc3ccc(Br)cc3)n2C)ccc2ccccc12	i
CCOc1ccc(C(=O)Nn2cnnc2)cc1	i
Cc1cccc(NC(=O)C2CCN(C(=O)c3ccc([N+](=O)[O-])cc3)CC2)c1C	12%
CCn1c(/C=C/c2ccc([N+](=O)[O-])o2)nc2ccc(I)cc2c1=O	2µg/mL*
Cc1c(Cl)cccc1NC(=S)N1CCN(c2ccccn2)CC1	i
Cc1c(NC(=S)NCCc2c[nH]c3ccccc23)c(=O)n(-c2ccccc2)n1C	i
COc1cc(C(=O)NC(=S)Nc2ccccc2N2CCCC2)ccc1OCc1ccc(Cl)cc1	17%
Cn1ncc2c(Nc3cccc(C(=O)O)c3)ncnc21	1%
CS(=O)(=O)Nc1ccc(C(=O)Nc2ccccc2)cc1	i
CN(C(=O)c1ccc(Cl)cc1[N+](=O)[O-])c1ccccc1	i
Nc1nnc(SCC(=O)Nc2nccs2)n1-c1ccccc1	i
